Bioassay records: PubChem BioAssay, National Center for Advancing Translational Sciences (NCATS)
D2 PAM: potentiates the human D2 dopamine receptor allosterically; P14416; DiscoveRx D2 beta-arrestin cells, luminescence, 90 min; 100% = 57 uM dopamine signal; potentiation, % (concentration not given with the values); actives 0.23% (n = 360,000); active = potentiation of 50% or more; inconclusive = 30% to 50%; inactive = 30% or less;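 further: compound concentration not given in the record; tested on top of an EC20 dose of dopamine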
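D2 cells co-treated with compound plus 50 nM dopamine (EC20) for 90 min at 37 deg C to detect potentiation. Beta-arrestin recruitment was read as enzyme-fragment luminescence after 1 h at ambient temperature. Full response was set by 57 uM dopamine.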
CtBP-E1A inh: CtBP/E1A binding inhibition; AlphaScreen GST-E1A/His-CtBP binding, 1536-well; stronger effect = lower value; control for the full effect not named in the record; activity change, % (test concentration not listed); actives 0.49% (n = 340,000); AID 651724; in the data active means activity change below about -65%; inconclusive means about -30% to -65%; inactive means above about -30%; further: on the % scale 0 is the no-effect control and ±100 the full control effect; compound concentration not given in the record
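GST-E1A and His-tagged CtBP (125 nM each as 5X stock) were preincubated with pin-transferred compound for 2 h at 37 °C in the dark, then glutathione donor and nickel acceptor beads were added for 1 h before AlphaScreen reading.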
TRPML1 agonist: agonists of human TRPML1 channel; actives 0.12% (n = 410,000); Q9GZU1; TRPML1-expressing cells, Ca2+ dye fluorescence, FDSS; host cell line not named in the record; reference of the full effect not given here; activation, % (no concentration beside the values); in the data active = activation above about 50%; inconclusive = about 30% to 50%; inactive = below about 30%; further: 0% is about no effect; the text of the record puts the active cut at 80%
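Kinetic FDSS Ca2+ read in Tet-induced TRPML1-DL cells (ABD Ca8 dye plus quencher, 45-90 min RT loading): baseline, then compound, then 110 s agonist window; EC80 agonist 54-4 at 4uM final added afterwards for a 110 s antagonist window.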
Six1-Eya2 inh: Six1/Eya2 interaction inhibition | actives 0.56% (n = 360,000) | AlphaScreen GST-Six1/His-Eya2 binding, biochemical; stronger effect = lower value; control for the full effect not named in the record | activity change, % (test concentration not listed); in the data active = activity change below about -65%; inconclusive = about -30% to -65%; inactive = above about -30%; further: on the % scale 0 is the no-effect control and ±100 the full control effect; compound concentration not given in the record
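AlphaScreen with GST-Six1 and His-Eya2 (5X mix: 250 nM and 500 nM), glutathione donor and nickel acceptor beads; buffer 50 mM Tris pH 8.0, 300 mM NaCl, 1 mM TCEP; 1 h at 37 C in the dark.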
TRPML1 blocker: blocks the human TRPML1 channel | Q9GZU1 | TRPML1-inducible cells, Ca2+ dye fluorescence, FDSS; stronger effect = lower value; inhibition of EC80 agonist-evoked calcium signal | activity change, negative = inhibition, % (no concentration beside the values) | actives 0.02% (n = 390,000) | AID 624415; in the data active means activity change below about -50%; inconclusive means about -30% to -50%; inactive means above about -30%;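 further: stimulus is agonist 54-4 at its EC80 concentration; on the % scale 0 is the no-effect control and ±100 the full control effect; compound concentration not given in the record; the text of the record puts the active cut at -80%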
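TRPML1-DL cells, Tet-induced overnight (~16 h, 37 °C) at 1,500 cells/well, were loaded with Ca8 no-wash dye plus quencher for 45-90 min at room temperature. Compounds were pinned during FDSS kinetic reading; agonist 54-4 at EC80 (4 uM final) then added.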
TRPV1 PAM: potentiators of human vanilloid receptor 1 (TRPV1). TRPV1-expressing cells, Fluo-8 calcium influx, capsaicin EC20 potentiation; host cell line not named in the record; control for the full effect not named in the record. potentiation, % at 8.33 µM. actives 0.02% (n = 320,000). AID 540277; active means potentiation above 80%; inconclusive means 30% to 80%; inactive means below 30%; further: 0% is about no effect
Target sequence (Q8NER1 whole entry, looked up): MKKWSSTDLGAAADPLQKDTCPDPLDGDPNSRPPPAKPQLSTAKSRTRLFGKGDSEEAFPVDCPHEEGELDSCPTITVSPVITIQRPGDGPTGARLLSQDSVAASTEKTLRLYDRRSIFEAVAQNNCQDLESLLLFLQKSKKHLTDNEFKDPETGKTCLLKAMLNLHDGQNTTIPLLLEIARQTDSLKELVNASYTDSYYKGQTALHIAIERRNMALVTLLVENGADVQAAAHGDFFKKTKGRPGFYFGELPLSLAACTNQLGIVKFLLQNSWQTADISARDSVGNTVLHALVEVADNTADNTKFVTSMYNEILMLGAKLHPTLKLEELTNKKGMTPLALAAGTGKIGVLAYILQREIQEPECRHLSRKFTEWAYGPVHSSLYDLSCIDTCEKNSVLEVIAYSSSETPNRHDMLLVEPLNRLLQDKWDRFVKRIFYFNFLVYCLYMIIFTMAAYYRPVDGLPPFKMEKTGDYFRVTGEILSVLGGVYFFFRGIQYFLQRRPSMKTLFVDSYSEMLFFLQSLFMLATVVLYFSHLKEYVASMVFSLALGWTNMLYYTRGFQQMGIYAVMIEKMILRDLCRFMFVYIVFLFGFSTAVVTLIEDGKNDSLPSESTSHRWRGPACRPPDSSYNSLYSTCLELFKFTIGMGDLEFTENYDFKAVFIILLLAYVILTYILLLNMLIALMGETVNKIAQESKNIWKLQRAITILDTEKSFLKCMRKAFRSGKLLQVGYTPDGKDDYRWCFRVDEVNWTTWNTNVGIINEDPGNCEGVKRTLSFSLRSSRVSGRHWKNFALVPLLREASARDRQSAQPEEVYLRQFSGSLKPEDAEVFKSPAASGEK
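TRPV1-expressing cells were cultured overnight at 35.5C and loaded with Fluo-8 calcium dye for 40 to 90 min at room temperature. After a 10 s baseline, compound was added and calcium influx was read kinetically for 3 min (ex 480/em 520 nm).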
The depositor's hits bear a star; ? = inconclusive; . = not tested or not shown; & = joins results of further samples. Rows were taken by chance (roughly 0.95% active in at least one column).

cpd	Structure	D2 PAM	CtBP-E1A inh	TRPML1 agonist	Six1-Eya2 inh	TRPML1 blocker	TRPV1 PAM
1	COc1ccc(CN(C)CC(=O)Nc2cccc(S(N)(=O)=O)c2)c(OC)c1OC	-12	.	-0.3	4	-17	0
2	CC(C)NC(=O)C1(c2ccccc2)CC1(Cl)Cl (configuration not stated)	4	-2	2.4	4	3	-15
3	O=C1CCCCCN1Cc1ccccc1	-14	0	-0.6	11	-4	5
4	COc1ccc(OCCC(=O)OCC(=O)NC(=O)NC2CCCCC2)cc1	-21	0	-0.7	0	-8	-13
5	Cn1c(N)c(C(=O)CSc2nnc(C3CC3)n2N)c(=O)n(C)c1=O	-1	5	0.2	-1	14	-2
6	Cc1nn(Cc2ccc(F)cc2)c(C)c1NC(=O)c1noc2c1CCCCC2	-14	-3	0.1	-1	-10	-1
7	CN(Cc1ccccc1F)C(=O)COc1ccc(C(=O)c2ccccc2)cc1	-12	1	2.4	0	-13	-10
8	O=S(=O)(c1ccc(Cl)cc1)N1CCN(CCc2ccncc2)CC1	-8	1	-0.6	-7	4	26
9	O=S(=O)(NCc1cccnc1)c1ccc2ccccc2c1	-9	-7	-0.4	-21	14	?
10	C/C(=N\N=C1\NC(=O)CC(C(=O)O)S1)c1ccc(F)cc1 (configuration not stated)	-13	3	-0.1	15	-1	8
11	Cc1ccc(NC(=O)C(=O)NCCCN2CC(C(=O)O)CC2=O)cc1 (configuration not stated)	-2	6	0.1	9	6	5
12	CCc1ccc(-c2cc(C)no2)cc1S(=O)(=O)N1CCN(c2ccc(C(C)=O)cc2)CC1	-8	-5	1.6	-7	6	?
13	CCOc1ccc(NC(=O)OCCN2CCN(CCc3ccccc3)C(C)C2)cc1 (configuration not stated)	-28	-6	0.7	-17	31	.
14	FC(F)(F)c1ccc(Cl)c(-n2c(-c3ccco3)n[nH]c2=S)c1	0	-3	.	-6	.	4
15	COc1ccc(N2CCN(CC(=O)Nc3ccccc3C(=O)NCc3ccccc3)CC2)cc1	2	-22	-0.5	?	-7	24
16	Cc1c(CC(=O)N2CCN(C(=O)C3COc4ccccc4O3)CC2)c(=O)oc2c(C)c(O)ccc12 (configuration not stated)	-5	-3	1.3	-9	2	3
17	Cn1c(=O)cc(SCC(=O)Nc2ccccn2)c2ccccc21	-6	0	0.5	-1	-8	6
18	CCCC(=O)c1ccc(N2CCN(C(=O)c3ccccc3)CC2)c(F)c1	-36	0	2.7	20	-17	-1
19	CC(=C1C(=O)c2ccccc2C1=O)N1CCN(c2ccccn2)CC1	-2	-1	-1.0	-6	-3	7
20	COc1ccc(-c2nc3c(C)cc(Br)cn3c2Cc2ccccc2)cc1OC	0	-11	0.2	-18	.	.
21	CN(C)S(=O)(=O)c1ccc(C(=O)N2CCN(S(=O)(=O)c3cccs3)CC2)cc1	-3	.	0.3	6	3	-3
22	Cc1ccc(S(C)(=O)=N/C=C2\C(=O)c3sccc3N(C)S2(=O)=O)cc1 (configuration not stated)	0	.	0.3	-6	41	7
23	COc1ccc(C(=O)CNc2ccc3ccccc3c2)cc1	-17	-3	0.5	2	35	16
24	COc1ccc(Cc2nnc(Nc3ccc(Cl)cc3)[nH]c2=O)cc1	0	6	-0.2	1	25	4
25	CC(=O)Nc1nc(C)c(-c2csc(Nc3ccc(O)cc3)n2)s1	-10	?	4.5	-28	12	-2
26	CN(C)C(CNC(=O)c1cc(-c2ccco2)nc2ccccc12)c1ccccc1 (configuration not stated)	-16	2	-0.7	-28	8	.
27	CCOC(=O)CSc1snnc1-c1ccccc1	-6	39	-1.7	23	52	-2
28	CC(=O)N(CC(=O)Nc1nn(-c2ccccc2)nc1C(N)=O)Cc1ccccc1	-5	2	0.7	0	4	-4
29	Nc1nonc1C(=O)NCCNCc1cc(Br)ccc1OCc1ccccc1F	-6	-1	0.1	-4	-12	-8
30	Cc1ccc(NCc2nc3ccccc3n2C)cc1C	-8	-3	0.1	-14	12	-16
31	CC(=O)c1ccccc1NC(=O)CSc1n[nH]c(=O)n1C1CC1	-8	1	1.6	8	31	.
32	Cc1cccc(C)c1NC(=O)CN1C(=O)C2CC=CCC2C1=O (configuration not stated)	1	.	-0.6	30	1	-38
33	CC(C)NCC#CCOc1ccc(Cl)cc1	-15	.	0.9	4	-5	-8
34	COc1ccc(CCNC(=O)COc2ccc(S(=O)(=O)NC3CCCCC3)cc2Cl)cc1	-2	0	3.0	-2	-3	20
35	COc1ccc(C(=O)Nc2ccc3c(c2)Cc2ccccc2-3)cc1	2	-3	0.1	4	5	-8
36	CCCC(=O)Nc1ccc(S(=O)(=O)Nc2nccs2)cc1	-18	.	-0.7	1	11	.
37	Cc1cc(C)cc(NC(=O)Cc2ccc(-n3cccc3)cc2)c1	-16	-3	1.4	0	-5	-6
38	CC(C)OC(=O)c1cc2ccccc2[nH]1	8	4	0.3	6	3	-15
39	O=C(Nc1ccon1)c1cccc(C(F)(F)F)c1	-19	-6	-0.3	-2	-6	0
40	C/C(=N\NC(N)=S)c1cc(-c2ccccc2)c(-c2ccccc2)s1	-2	-13	0.6	-19	-18	-2
41	C/C(=N\NS(=O)(=O)c1ccc([N+](=O)[O-])cc1)c1cccs1	-6	.	-0.1	1	20	-4
42	COc1ccc(/C(O)=C2/C(=O)C(=O)N(CCN(C)C)C2c2ccc(F)cc2)cc1Cl (configuration not stated)	-12	-1	0.2	2	-14	13
43	N/C(=N\OC(=O)Oc1ccccc1)c1ccc(Br)cc1	-14	2	0.1	0	7	16
44	O=C(Nc1cccc(C(F)(F)F)c1)c1csc([C@@H]2O[C@H](CO)[C@@H](O)[C@H]2O)n1	0	-5	-0.7	1	.	.
45	Cc1c(-c2cc(C(=O)O)no2)cnn1C	-5	13	-0.1	6	6	0
46	CCCCNC(=O)c1sc2nc(C)cc(COC)c2c1-n1cccc1	-17	-11	1.0	-1	-5	-1
47	CCn1c(=O)cc(OCC(=O)N2CCN(c3ccc(F)cc3)CC2)c2ccccc21	-2	2	0.7&-1.1	0	18&25	-3
48	COC(=O)CCCNS(=O)(=O)c1ccc2ccccc2c1	-14	-1	1.0	-9	15	2
49	CCN1/C(=C/c2ccc3ccccc3[n+]2CCCS(=O)(=O)[O-])C=Cc2cc(C)ccc21	-13	?	-0.7	-21	-7	-28
50	Cc1ccc(-c2ccc(C3=CC(=O)CC(C)(C)C3=O)cc2)cc1	3	6	-0.2	-1	-16	.

More records:
cpd	Structure	D2 PAM	CtBP-E1A inh	TRPML1 agonist	Six1-Eya2 inh	TRPML1 blocker	TRPV1 PAM
51	COc1ccc(C(CNC(=O)C(C)(C)Oc2ccc(Cl)cc2)N2CCCC2)cc1 (configuration not stated)	-37	.	0.0	2	48	-14
52	Cn1c(N)c(C(=O)COC(=O)c2ccc(F)cc2Cl)c(=O)n(C)c1=O	-1	-4	0.8	6	0	.
53	O=C(CSC1=NCCN1)Nc1ccccc1[N+](=O)[O-]	-15	4	-0.4	-1	-1	1
54	Cn1nnnc1SCc1csc(Nc2ccccc2)n1	-14	-11	-0.9	-1	-12	0
55	COc1ccc(-c2cc(-c3nc4ccccn4c3NCc3ccccc3)ccc2OC)cc1	?	?	0.9	-29	37	.
56	CN(C(=O)COC(=O)c1n[nH]c2ccccc12)c1ccccc1	-8	0	1.0	-1	4	-20
57	C=CCOC(=O)C1=C(C)OC(N)=C(C#N)C1c1ccco1 (configuration not stated)	-20	.	-0.7	-3	11	-15
58	COc1ccccc1NC(=O)CCNS(=O)(=O)c1ccc2c(c1)CC(C)N2C(=O)C1CC1 (configuration not stated)	-7	2	-0.1	18	25	3
59	O=C(CSc1nc2c(c(C(F)(F)F)n1)CCc1ccccc1-2)NCc1ccc(F)cc1	3	45	0.7	0	-11	-20
60	CCC1CCC(N2CCN(c3ccc([N+](=O)[O-])cc3)CC2)CC1 (configuration not stated)	-10	?	-0.1	-25	73	-2
61	CN(CC1CCCN(CCc2ccc(Cl)cc2)C1)C(=O)C(=O)c1ccco1 (configuration not stated)	-24	-9	-0.3	0	4	-6
62	CSCCC(N=C1NS(=O)(=O)c2ccccc21)C(=O)N1CCCC(C(N)=O)C1 (configuration not stated)	-7	4	0.4	6	25	20
63	Cc1ccn(CC(=O)O)c(=O)c1	-4	3	-0.8	4	3	-1
64	Cc1ccc(-c2nc3ncccc3o2)cc1NC(=O)c1ccccc1	3	4	1.9	3	-22	16

An excerpt from above in order of heavy-atom count, ascending.
cpd	Structure	D2 PAM	CtBP-E1A inh	TRPML1 agonist	Six1-Eya2 inh	TRPML1 blocker	TRPV1 PAM
63	Cc1ccn(CC(=O)O)c(=O)c1	-4	3	-0.8	4	3	-1
53	O=C(CSC1=NCCN1)Nc1ccccc1[N+](=O)[O-]	-15	4	-0.4	-1	-1	1
54	Cn1nnnc1SCc1csc(Nc2ccccc2)n1	-14	-11	-0.9	-1	-12	0
57	C=CCOC(=O)C1=C(C)OC(N)=C(C#N)C1c1ccco1 (configuration not stated)	-20	.	-0.7	-3	11	-15
60	CCC1CCC(N2CCN(c3ccc([N+](=O)[O-])cc3)CC2)CC1 (configuration not stated)	-10	?	-0.1	-25	73	-2
64	Cc1ccc(-c2nc3ncccc3o2)cc1NC(=O)c1ccccc1	3	4	1.9	3	-22	16
62	CSCCC(N=C1NS(=O)(=O)c2ccccc21)C(=O)N1CCCC(C(N)=O)C1 (configuration not stated)	-7	4	0.4	6	25	20
59	O=C(CSc1nc2c(c(C(F)(F)F)n1)CCc1ccccc1-2)NCc1ccc(F)cc1	3	45	0.7	0	-11	-20
58	COc1ccccc1NC(=O)CCNS(=O)(=O)c1ccc2c(c1)CC(C)N2C(=O)C1CC1 (configuration not stated)	-7	2	-0.1	18	25	3
